gsp agonist: qHTS for Agonist of gsp, the Etiologic Mutation Responsible for Fibrous Dysplasia/McCune-Albright Syndrome: qHTS; gsp mutant cells, cAMP HTRF, 30 min; control for the full effect not named in the record; Potency, µM (doses to about 76.9 µM), inactives show at the highest dose activation (cAMP increase), usual class: activators; actives 0.13% (n = 340,000); active = well fitted activation curve with a large enough effect; inconclusive = small, poorly fitted or top-dose-only effect, or another doubt; inactive = no such curve, though single readings can be large or run the other way; cell line not stated here;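 also: phosphodiesterase inhibitor Ro 20-1724 added with compounds to block cAMP breakdown; potency is read from the fitted curve at half-maximal effect; nearly all actives have a fitted effect of over 60% in size; about a fifth of the inactives were tested at one dose only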
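Cells stably selected in G418 were plated at 2000/well, grown 16-24 hr, then given compounds in DMSO with the PDE inhibitor […] (300 uM solution added) for 30 min at 37C; cAMP was read by HTRF.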
gsp antagonist: qHTS for Antagonists of gsp, the Etiologic Mutation Responsible for Fibrous Dysplasia/McCune-Albright Syndrome: qHTS; actives 0.4% (n = 340,000); Potency, µM (highest dose often 76.9 µM), inactives show at the highest dose activity change, negative = inhibition, hits mostly inhibitors; AID 624288, 2012; gsp-mutant cells, cAMP HTRF, 30 min; control for the full effect not named in the record; active = falling curve of any shape with a large fitted effect; inconclusive = falling curve, mostly with a smaller effect; inactive = flat or rising curve; cell line not stated here;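 also: intracellular cAMP measured with PDE inhibitor Ro 20-1724 present during compound exposure; potency is read from the fitted curve at half-maximal effect; % is scaled to controls: 0 for no effect and ±100 for the full control effect; nearly all actives have a fitted effect of over 65% in size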
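HTRF cAMP read-out (cAMP-d2 plus anti-cAMP antibody-K in lysis buffer, 30 min RT). Before lysis, cells are exposed to compounds with […] for 30 min at 37C in DPBS containing Ca/Mg, BSA and Tween 20.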
Menin-MLL FL inh: qHTS Assay for Inhibitors Targeting the Menin-MLL Interaction in MLL Related Leukemias: Competition With Fluorescein Labeled MLL-derived Peptide | Fluorescence polarization, fluorescein-MLL peptide displacement from menin | FP activity change, % at 61.4 µM | 290,000 tested, under 10 active | AID 1766, 2009; inconclusive = falling polarisation curve, or a change in total fluorescence; inactive = total fluorescence flat and polarisation flat or rising; no compound was filed as active; the % refers to the polarisation; negative = inhibition;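 also: % of control where 0% means no effect; inhibitors lower the polarisation; unlabelled MLL peptide was the positive control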
TRPML1 inh: qHTS for Inhibitors of the Human Mucolipin Transient Receptor Potential 1 (TRPML1); AID 624415, 2012; actives 0.02% (n = 390,000); TRPML1-inducible cells, Ca2+ dye fluorescence, FDSS; active compounds read low; inhibition of EC80 agonist-evoked calcium signal; activity change, negative = inhibition, % (test concentration not listed); Mucolipin-1 (Homo sapiens), Q9GZU1; in the data active means activity change below about -50%; inconclusive means about -30% to -50%; inactive means above about -30%;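 also: stimulus is agonist 54-4 at its EC80 concentration; % is scaled to controls: 0 for no effect and ±100 for the full control effect; compound concentration not given in the record; the text of the record puts the active cut at -80%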
Target sequence (Q9GZU1 whole entry, looked up): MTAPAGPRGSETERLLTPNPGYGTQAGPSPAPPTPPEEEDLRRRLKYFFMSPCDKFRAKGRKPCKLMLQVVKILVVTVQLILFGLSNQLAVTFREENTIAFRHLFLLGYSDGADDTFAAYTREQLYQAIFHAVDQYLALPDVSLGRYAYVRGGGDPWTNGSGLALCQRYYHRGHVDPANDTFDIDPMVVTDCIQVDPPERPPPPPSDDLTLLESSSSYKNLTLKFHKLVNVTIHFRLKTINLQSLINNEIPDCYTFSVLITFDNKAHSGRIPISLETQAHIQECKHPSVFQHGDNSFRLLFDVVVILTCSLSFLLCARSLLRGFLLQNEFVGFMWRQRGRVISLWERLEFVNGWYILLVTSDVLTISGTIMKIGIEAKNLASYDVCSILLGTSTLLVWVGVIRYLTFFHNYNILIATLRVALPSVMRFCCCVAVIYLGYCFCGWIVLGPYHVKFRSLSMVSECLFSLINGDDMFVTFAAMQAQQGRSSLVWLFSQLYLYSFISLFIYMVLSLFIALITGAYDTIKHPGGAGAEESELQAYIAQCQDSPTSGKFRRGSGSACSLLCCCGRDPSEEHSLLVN
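Tet-induced TRPML1-DL cells loaded with Ca8 no-wash calcium dye were read kinetically on FDSS. Compound addition was followed by EC80 agonist 54-4 (4 uM final); inhibition was read over 110 s.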
ClpP mod: qHTS Assay for Activators of ClpP. purified B. subtilis ClpP, FRET peptide cleavage, 20 min. Potency, µM (highest dose often 57.5 µM), inactives show at the top dose activity change, negative = active. actives 1.9% (n = 340,000). ATP-dependent Clp protease proteolytic subunit (Bacillus subtilis (strain 168)), P80244; active = well fitted falling curve with a large enough effect; inconclusive = small, poorly fitted or top-dose-only effect; inactive = no such curve, though single readings can be large or run the other way; also: potency is read from the fitted curve at half-maximal effect; the source files actives as falling curves though it sought activators and does not explain the sign; nearly all actives have a fitted effect of over 65% in size; many hits overshoot -100%
Target sequence (P80244 whole entry, looked up): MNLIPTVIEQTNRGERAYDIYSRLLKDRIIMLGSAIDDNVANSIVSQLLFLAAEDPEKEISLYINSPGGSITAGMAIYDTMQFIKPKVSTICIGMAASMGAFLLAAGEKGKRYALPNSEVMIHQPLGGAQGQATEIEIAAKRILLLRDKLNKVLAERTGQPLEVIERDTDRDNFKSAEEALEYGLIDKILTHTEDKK
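ClpP 10 microg/mL final, pH 8 Tris/KCl buffer with BSA, glycerol, Tween-20; compound pinned in; FRET-FV substrate; RT 20 min; Ex320/Em430; ΔFRET vs ADEP 5.8 microM, DMSO, no enzyme.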
TRPML1 ag: qHTS for Agonists of the Human Mucolipin Transient Receptor Potential 1 (TRPML1) | Mucolipin-1 (Homo sapiens), Q9GZU1 | TRPML1-expressing cells, Ca2+ dye fluorescence, FDSS; host cell line not named in the record; reference of the full effect not given here | activation, % (concentration not given with the values) | actives 0.12% (n = 410,000) | AID 624414, 2012; in the data active = activation above about 50%; inconclusive = about 30% to 50%; inactive = below about 30%; also: 0% is about no effect; the text of the record puts the active cut at 80%
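Tetracycline-induced TRPML1-DL cells are seeded and incubated overnight before loading with a no-wash Ca2+ dye and quencher. Agonist activity is taken from the 110 s fluorescence read following compound pin-transfer on an FDSS, before EC80 54-4 challenge.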
Active calls of the source: *; ? = inconclusive; · = not tested or not shown; & = joins results of further samples; [ ] = another dose, or the depositor's remark.

Value order – TRPML1 ag, Menin-MLL FL inh, gsp antagonist, TRPML1 inh, gsp agonist, ClpP mod
> Cc1ccc(N2C(=O)C3CC3C2=O)cc1 (stereo unspecified)
→ 1.0, -0.4, 5%, 16, -15%[15.4 µM], ·
> COC(=O)c1c(C(=O)OC)c(-c2cccc(F)c2)n2c1CS(=O)(=O)C2
→ 2.8, 4.7, -6%, -2, -5%, 1.3%
> Cc1ccsc1/C=N/NC(=O)CSCc1ccc(Cl)cc1
→ -0.6, 3.2, -3%, 8, ?, -2.5%
> COc1cccc(OCC(=O)O/N=C(\N)c2ccncc2)c1
→ 0.2, 2.3, 1%, 6, 20%[15.4 µM], ·
> COC1OC(COC(=O)c2ccccc2)C(OC(=O)c2ccccc2)C1OC(=O)c1ccccc1 (stereo unspecified)
→ 2.8, 0.6, 6%, 7, -3%, -0.4%
> COc1ccc(C(=O)Nc2ccc(OCC(=O)N3CCOCC3)cc2)c(OC)c1OC
→ 0.7, -2.5, 0%, 6, 3%[15.4 µM], 1.8%
> CCOc1ccc(/C=N/NC(=O)c2cccc3ccccc23)c(OCC)c1
→ 2.4, 2.4, ?, -18, 26%, ?
> O=C(NC1CCCc2ccccc21)c1cc(Cl)ccn1 (stereo unspecified)
→ 1.4, 3.0, 1%, -17, -74%[inhibitor], ·
> COCCCN1C(=O)N(c2ccc(F)cc2)C(=O)C1CC(=O)Nc1ccccc1 (stereo unspecified)
→ 0.8, -0.1, 4%, 9, -2%, 0.0%
> O=C(NC1CC2CCCC(C1)N2Cc1ccco1)NC12CC3CC(CC(C3)C1)C2 (stereo unspecified)
→ 0.9, -0.1, 9%, 4, 3%, 0.1%
> Cn1c(=O)c(/C=C/c2ccc(F)cc2)nc2ccccc21
→ -0.8, ?, -10%, -18, -7%[15.4 µM], -0.5%
> CCN(CC)CCN(Cc1cc2ccc(C)cc2[nH]c1=O)C(=O)Nc1ccc(Cl)cc1
→ 0.7, -1.7, 4%, -10, -52%[inhibitor], ·
> Cc1cc2cc(CNC(=S)Nc3ccc(OC(F)F)cc3)ccc2[nH]1
→ 0.8, -1.0, -7%, -9, ?, -4.3%
> COc1ccc(-c2cc(-c3ccccc3)nc(SCC(=O)Nc3nccs3)c2C#N)cc1
→ 0.6, 7.2, -2%, -13, -6%, 28µM*
> CCn1cc(/C=N/NC(=O)c2ccc3c(c2)OCO3)cn1
→ -0.4, 3.8, 15%, 1, -3%[15.4 µM], -0.2%
> COC(=O)CSc1nnc(COc2ccc3ccccc3c2)o1
→ -1.0, -6.4, -12%, -10, ?, ·
> COc1ccccc1C(=O)NCCC(=O)N(C)CC(=O)Nc1ccc(Cl)cc1
→ 0.0, ·, -20%, 7, -1%, 0.2%
> Cc1cccc(OCc2nnc(SC(C)C(=O)O)n2-c2ccccc2)c1 (stereo unspecified)
→ -0.2, 0.2, 5%, -5, -19%, -0.8%
> CN1C(=O)c2ccccc2C(C(=O)O)C1c1cccc([N+](=O)[O-])c1 (stereo unspecified)
→ -0.2, -9.3, -1%, 19, -37%[inhibitor], ·
> COc1ccc(Nc2nc3ccccc3nc2NS(=O)(=O)c2ccc(Cl)cc2)cc1OC
→ 1.1, ·, ·, 21, ·, -6.4%
> CCOc1ccc(NC(=O)CSc2nc(=O)n(CCN3CCOCC3)c3c2CCCC3)cc1
→ 0.0, ·, 0%, -6, 5%, -1.2%
> CCCc1cc(=O)n2c([nH]c3ccccc32)c1C#N
→ 0.3, -2.0, -25%, -6, -6%, 13%
> COc1cc2c(cc1OC)CN(C(=O)/C=C/c1cccc([N+](=O)[O-])c1)CC2
→ 1.9, 2.1, -11%, -8, 19%[15.4 µM], ·
> O=C(Nc1ccccc1C(F)(F)F)c1cc2ccccc2o1
→ ·, 11, 2%, ·, 1%, -2.9%
> CC(C)(C)c1nnc(NC(=O)C2c3ccccc3Oc3ccccc32)s1
→ -0.1, -0.2, -12%, -6, 17%, 1.3%
> CCN(CC)CCSc1nc2ccccc2n1Cc1ccccc1
→ -0.5, 0.2, 16%, 27, -9%, 0.1%
> CC1=NN(C(N)=S)C(=O)C1N=Nc1ccccc1 (stereo unspecified)
→ 3.5, 5.6, -7%, 6, ?, -0.2%
> COc1ccc(OC)c(C(c2nnnn2C(C)(C)C)N2CCc3ccccc3C2)c1 (stereo unspecified)
→ -0.5, 2.6, -9%, 21, 14%, 0.5%
> COc1nc(NCCc2ccc(OC)c(OC)c2)nc(OC)n1
→ -0.5, -3.2, 3%, 27, 13%, 1.3%
> CSc1ncccc1C(=O)Nc1ccc(S(=O)(=O)N2CCCC2)cc1
→ 0.9, ·, -10%, -8, -6%, -1.0%
> COC(=O)c1ccccc1NC(=O)COC(=O)c1cccnc1
→ -0.9, 0.7, 5%, -2, -13%, -3.4%
> Cc1nc(SCC(=O)N2CCOCC2)c2c(=O)n(C)c(=O)n(CC(C)C)c2n1
→ 0.1, ·, -23%, 0, 25%[15.4 µM], 3.8%
> CN(C[C@H](Cc1ccccc1)N(C[C@H](CC1CCCCC1)N(CCc1ccccc1)N=O)N=O)N=O
→ -0.6, -2.7, 1%, 13, -4%, 1.6%
> Cc1ccccc1-c1nc(CN2CCC(C(=O)NCCCN3CCOCC3)CC2)c(C)o1
→ -0.8, 2.1, 16%, -2, -3%, -0.5%
> Cc1ccsc1CN(C)CC(=O)Nc1ccc([N+](=O)[O-])cc1Cl
→ 2.7, -6.4, -20%, 52, 11%, ·
> Cc1ccccc1NC(=O)COC(=O)C1CC2CCCC(C1)C2=O (stereo unspecified)
→ 0.1, ·, 6%, 5, 22%, -1.1%
> CCn1cc(C(=O)NCc2ccc(C)cc2)c(=O)c2cc(S(=O)(=O)N(C)C3CCCCC3)ccc21
→ -1.0, ·, ·, -13, ·, -5.7%
> Cc1cc(C)c(NC(=O)CSc2nc3ncc(Br)cc3[nH]2)c(C)c1
→ 1.2, 1.1, ?, 42, 67%, 2.1%
> COc1ccc(-c2noc(CCC(=O)N3CCN(c4ccccc4OC)CC3)n2)cc1
→ -1.3, ·, -20%, 10, ·, -2.8%
> Cc1nc(N2CCN(c3ccccc3)CC2)nc2c1C(=O)CC(C)C2 (stereo unspecified)
→ 0.9, -0.5, ?, -8, 23%, -1.2%
> CCCCCOc1ccc(NC(=O)C(=O)NCCCn2ccnc2)cc1
→ -0.6, 2.9, -1%, -5, -21%, 0.4%
> NS(=O)(=O)c1cccc(NC(=O)CSc2nnnn2-c2ccccc2)c1
→ -1.2, 2.6, 0%, 5, 9%[15.4 µM], ·
> COc1cccc(CNC(=O)COC(=O)CCCNC(=O)c2ccc(Cl)cc2)c1
→ 2.4, ·, 1%, -3, -3%, -1.7%
> COCCN(Cc1ccccc1)C(=O)c1cccc(S(=O)(=O)N(C)c2c(C)n(C)n(-c3ccccc3)c2=O)c1
→ -0.9, ·, -10%, -11, 4%, 1.1%
> O=c1c2ccccc2cnn1-c1ccc(Cl)cc1
→ 1.0, 1.3, -8%, 19, 24%, -6.1%
> CCOC(=O)C1CCCN(S(=O)(=O)c2cc(Br)cc3c2N(C(=O)CC)CC3)C1 (stereo unspecified)
→ 1.1&-0.9, -2.3, -2%, 19&-13, 9%, 0.4%
> CCOC(=O)CCC(NC(=O)CCC(=O)NC(CCC(=O)OCC)C(=O)OCC)C(=O)OCC (stereo unspecified)
→ 0.6, 2.0, -16%, 2, 14%, -22%
> COCc1cc(C)nc(SCC(=O)Oc2ccc(Cl)cc2)c1C#N
→ -0.9, 8.1, 11%, 14, 1%[15.4 µM], ·
> CCOc1ccc(C2Nc3ccccc3C(CC)(CC)O2)cc1 (stereo unspecified)
→ -0.6, -4.0, 5%, -3, 24%, 2.4%
> COc1cc(NC(=O)CN2C(=O)c3ccccc3Sc3ccc(C(=O)N4CCCC4)cc32)cc(OC)c1
→ 1.5, ·, ·, 0, ·, -1.5%
> CC(C)COc1ccc(CNC(=S)Nc2ccccc2)cc1Cl
→ 1.1, 3.9, -18%, 1, 21%, ·
> O=C1CCCc2ccccc2N1Cc1cccc(Cl)c1
→ 3.5, 5.7, -12%, 9, 32%, 1.5%
> CC1CN(C2CCN(S(=O)(=O)Cc3ccccc3)CC2)CC(C)O1 (stereo unspecified)
→ -0.3, 2.9, -3%, 8, 0%, 1.6%
> O=C(CN1CCN(c2ccc(O)cc2)CC1)NC(=O)NCc1ccco1
→ -0.1, 1.8, 13%, 6, 0%, 0.6%
> Cc1ccc2cc(C#N)c(N3CCN(C(=O)c4cccs4)CC3)nc2c1
→ 0.2, -2.5, 1%, 59, 1%[15.4 µM], 0.1%
> CCN(CC)C(=O)c1ncn(Cc2ccccc2)c1C(=O)N(CC)CC
→ 0.0, ·, 2%, 11, 5%, 0.3%
> O=S(=O)(Nc1ccc(C(F)(F)F)cc1)c1ccc2c(c1)OCCO2
→ 1.8, ·, ·, 14, ·, 0.0%
> NC(=O)c1ccccc1NC(=O)CS(=O)(=O)Cc1ccccc1
→ -0.9, 9.4, 9%, -11, -3%, -2.3%
> Cc1nnn(-c2nonc2N)c1C(=O)NNC(=O)c1ccc(Cl)c(Cl)c1
→ 1.1, -1.2, -4%, -4, 8%, ·
> N#CC1(NC(=O)COc2ccc(C(N)=O)cc2)CCCC1
→ -0.6, ·, 8%, 16, -15%, 1.3%
> CCOc1ccccc1CNC(=O)c1ccc2c(c1)sc1nc(-c3cccc(OC)c3)cn12
→ 0.1, ·, ·, 12, ·, 4.4%

Source: PubChem

Compounds as they come; about 2.1% have a hit in one of these screens.
